From PubChem
Rce1 inhib: inhibitors of yeast Ras-converting enzyme; Q03530; yeast membranes, quenched prenylated peptide cleavage fluorescence; calls only; 290,000 compounds, 0.27% hits; AID 2563;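 active = fall in fluorescence gain of 50% or more versus controls, with final raw signal at or below 3038400; inconclusive = same 50% fall but final raw signal above 3038400; inactive = fall in fluorescence gain under 50%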;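 also: plate controls were neutral control wells for no effect and wells lacking membranes for full effect; tested at 10 µM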
Target sequence (Q03530 whole entry, looked up): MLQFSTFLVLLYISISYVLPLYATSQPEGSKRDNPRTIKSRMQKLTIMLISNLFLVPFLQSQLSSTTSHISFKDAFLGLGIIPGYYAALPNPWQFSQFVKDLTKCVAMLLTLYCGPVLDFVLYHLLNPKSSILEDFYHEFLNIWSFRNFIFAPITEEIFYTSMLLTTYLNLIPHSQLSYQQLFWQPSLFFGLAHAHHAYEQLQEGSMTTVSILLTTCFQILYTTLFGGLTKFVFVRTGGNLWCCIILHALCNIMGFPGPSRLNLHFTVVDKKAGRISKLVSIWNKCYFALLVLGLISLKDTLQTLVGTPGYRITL
CSC inhib: blocks cancer stem cells | cancer stem cell-like cells viability, luminescence | inhibition, % at 7.5 µM | 300,000 compounds, 1.1% hits | AID 2717;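 active = mean at 75% or more and at least half the replicates too; inconclusive = mean and replicates disagree; tested in HMLE shEcad cells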;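 also: 0% = median of negative and 100% = median of positive control wells; the first replicate is given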
UUG fidelity: alters start codon recognition fidelity in yeast; S. cerevisiae UUG-firefly luciferase reporter, luminescence/redox ratio; activity score, % at 18.7 µM; 350,000 compounds, 0.13% hits;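 active = replicate mean at a twofold rise or more, about +100% in these data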;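 also: firefly luciferase made from a UUG start codon reports start codon fidelity; reporter light over untreated wells divided by growth signal over untreated wells; some hits fall short of that in this replicate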
PABP FP inh: blocks human PABP binding to poly(A) RNA; P11940; fluorescence polarization; inhibition, % at 35 µM; 290,000 compounds, 1% hits; AID 2014;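 active = 50% or more with normal probe brightness, or confirmed in later tests; inconclusive = above 50% with abnormal brightness, or retests that disagree; inactive = below 50% or failed in later tests; about a fifth of its hits are not listed in these tables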;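 also: calls also rest on retests at 20 µM and on dose response follow-up; controls were probe without protein and protein plus probe with vehicle; some compounds called inactive have numbers as strong as hits; many hits fall short of the cut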
MT1-MMP act inh: inhibitors of human MT1-MMP activation. P50281. HT1080 RFP-PRO-GFP cells, GFP/RFP ratio fluorescence, overnight; percent of plate control window, DMSO zero. GFP/RFP ratio change, % at 20 µM. 360,000 compounds, 0.061% hits;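 active = GFP/RFP ratio change of at least 30% with cell ATP level not reduced by more than half and red fluorescence within 50% of control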; also: strong numbers were not always called active
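Assay system: HT1080 RFP-PRO-GFP cells | Dosing: 20 µM single dose, 1% DMSO | Incubation: Cells overnight before dosing, compound overnight, 37 °C, 5% CO2 | Evaluation: GFP/RFP fluorescence ratio | Control set: DMSO-only wells and HT1080 RFP-L50D-GFP cell wells as references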
eIF4H FP inh: inhibitors of RNA binding by human eIF4H | inhibition, % at 35 µM | eIF4H fluorescence polarization binding assay | 290,000 compounds, 0.94% hits | Q15056;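 active = 50% or more with normal probe brightness, or confirmed in later tests; inconclusive = above 50% with abnormal brightness, or retests that disagree; inactive = below 50% or failed in later tests; about a fifth of its hits are not listed in these tables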;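 also: calls also rest on retests at 20 µM and on dose response follow-up; 0% = protein and probe with vehicle and 100% = probe without protein; strong numbers were not always called active; many hits fall short of the cut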
HIV Env fusion: blocks HIV Env-driven cell-cell fusion; inhibition, % at 12.3 µM; 360,000 compounds, 1.1% hits; HeLa-JRFL Env/CEM21 cell fusion, luciferase;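 active = mean replicate inhibition score of at least 50 and every replicate individually at or above 50; inconclusive = only one of the two criteria met; inactive = mean below 50 and not all replicates reaching 50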;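 also: 0% = plate neutral controls and 100% = maraviroc near 300 nM; one replicate is shown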
eIF4H FP inh retest: recorded beside eIF4H FP inh, whose call it bears; inhibition, %; compound at 20 µM; confirmation average;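 mean of two retest wells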
PABP FP inh retest: also measured in PABP FP inh; calls as there; inhibition, %; compound at 20 µM; confirmation repeats;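 mean of two retest wells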
MT1-MMP act inh RFP: also measured in MT1-MMP act inh; calls as there; RFP signal change, %; measured here: RFP expression control read;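 0 = vehicle wells; hits needed this value within 50% of zero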
* hit, by the source's call; i = inactive; ? = inconclusive; / = no result given; & = joins results of further samples.

SMILES	Rce1 inhib	CSC inhib	UUG fidelity	PABP FP inh	MT1-MMP act inh	MT1-MMP act inh RFP	eIF4H FP inh	HIV Env fusion	others
CC(C)(C)n1nnnc1SCC(=O)Nc1nn(-c2ccccc2)nc1C(N)=O	i	-76	-10	2	2	2	-2	7
CN(C)c1ccc(C(C(=O)NCC2CCCO2)N(C(=O)c2snc(C(N)=O)c2N)c2ccc3c(c2)OCO3)cc1 (stereo unspecified)	i	43	18	4	-4	-8	5	5
Nc1cc(Cl)ccc1Oc1ccc2ccccc2c1	i	83*	/	-3	5	-4	-10	/
CCCNC(=O)Nc1nc(C(N)c2ccc(OC)cc2)cs1 (stereo unspecified)	/	/	-28	/	-4	1	/	-22
Cc1cc(C)c(NC(=O)CSc2nc(COc3ccccc3)nc3ccccc23)c(C)c1	i	28	3	-6	-1	-2	13	/
COc1cc(/C=C/C(=O)N2CCN(Cc3ccccc3)CC2)cc(OC)c1OC	i	15	-14	-10	0	-2	-12	-11
COc1ccc(/C(C)=N/NC(=O)CNC(=O)/C=C\c2ccccc2)c(OC)c1	i	10	-7	-2	-1	-1	-6	5
O=C(Nc1ccc(-c2csc(Nc3ccccc3)n2)cc1)c1cccc(C(F)(F)F)c1	i	14	-8	-11	-4	-22	16	8
CCOc1ccc(C2c3c(oc4cc(C)c(C)cc4c3=O)C(=O)N2CCCN2CCOCC2)cc1 (stereo unspecified)	i	2	0	-4	-3	4	-3	-15
Cn1nc(CC(=O)NC2CCCCCCCCCCC2)c2ccccc2c1=O	/	34	-16	-3	2	-9	-2	36
CCn1cc(C(=O)O)c(=O)c2cc(F)c(N/N=C/c3ccccc3)cc21	i	2	-10	-1	-6	-5	15	/
CC(=O)Nc1ccc(Sc2ccccc2C(=O)Nc2ccc(F)cc2)cn1	i	-10	/	-1	-3	0	-5	?
COC(=O)C(Cc1ccccc1)NC(=O)CC(C)CC(=O)Nc1ccc(OC)cc1OC (stereo unspecified)	i	-7	-10	4	3	5	-10	-9
CCNS(=O)(=O)c1ccc(NC(=O)CC(C)c2ccccc2)cc1 (stereo unspecified)	i	1	/	0	4	-6	3	17
CCOC(=O)c1c(NC(=O)COC(=O)CC(NC(C)=O)c2ccccc2)sc(C(=O)NC)c1C (stereo unspecified)	/	-2	-4	/	3	-1	/	/
Cc1nc2ccccc2c2oc(C(=O)NCC3CCCO3)cc12 (stereo unspecified)	i	-22	-6	10	6	-1	-6	0
CCc1cccc(CC)c1NC(=O)C1CCN(C(=O)c2ccco2)CC1	/	-1	-7	5	2	1	-12	-5
COc1ccc(NC(=O)CC2SC(N3CCOCC3)=NC2=O)cc1OC (stereo unspecified)	/	-17	1	/	-3	2	/	/
O=C(N1CCc2[nH]c3ccccc3c2C1)C(F)(F)F	i	0	-16	-8	-4	1	-4	-15
Cc1cccc(C(=O)N2CCN(Cc3nc4sc5c(c4c(=O)[nH]3)CCCC5)CC2)c1	i	/	-11	2	-1	-4	-3	-6
CCCCCCC(=O)Oc1cccc(N2C(=O)C3CCCCC3C2=O)c1 (stereo unspecified)	i	/	/	-5	-1	0	-2	1
Cc1ccccc1NS(=O)(=O)c1cc(S(C)(=O)=O)ccc1C	i	-1	/	-14	1	4	-7	12
COc1ccc(NC(=O)CSc2ccc3c(c2)OCCO3)cc1	/	-15	-15	/	5	-4	/	-5
CN1CCC(N(C)C(=O)c2ccc(Cl)c(S(=O)(=O)N3CCCCC3)c2)CC1	/	/	0	/	-1	1	/	1
CCOc1c2ccc(C(=O)NCc3ccc4c(c3)OCO4)cc2nn1CCOC	i	-3	-11	0	3	3	6	5
COc1ccc(CC(=O)OCC(=O)NCc2ccc(F)cc2)cc1	/	/	3	/	-2	-1	/	-43
COc1cccc2cc(C(=O)NCc3ccco3)c(=Nc3ccc(C(=O)O)cc3)oc12	i	12	-40	3	4	4	-15	/
O=C(CCNS(=O)(=O)c1ccccc1F)OCc1ccccc1Cl	/	-15	-7	/	-2	-1	/	9
O=C1NC(=Nc2ccc(O)cc2)S/C1=C\C=C\c1ccco1	i	24	/	94*	0	-11	83*	-426
CCOc1ccc(Cc2nc(C)c(CC(=O)N3CCOCC3)c(=O)[nH]2)cc1	i	1	-8	-7	3	2	-18	/
CCOc1ccc(/C=C2\SC(=S)NC2=O)cc1OC	i	-4	-5	10	-9	-1	2	2
O=C(c1cccs1)N1CCc2ccccc21	i	15	-15	-2	3	5	-7	-49
CC(C(=O)NC(=O)NC1CCCCC1)N(C)CC(=O)Nc1ccc(F)c(F)c1F (stereo unspecified)	i	-11	/	/	-6	-17	/	/
CC1(Oc2ccc3ccccc3c2)CCN(Cc2ccc(OC(F)(F)F)cc2)C1 (stereo unspecified)	/	/	10	/	4	1	/	8
FC(F)(F)c1ccc(Cl)c(-n2c(-c3cc(C4CC4)[nH]n3)n[nH]c2=S)c1	i	-9	-28	6	0	0	3	-6
CCCCOC(=O)C1CCCC(C(=O)OCCCC)N1 (stereo unspecified)	i	-7	-15	4	0	0	14	/
S=C(Cc1ccc(Cl)cc1)N1CCOCC1	i	10	/	-2	0	1	19	19
CCCC(=O)N1CCC1(C)C(=O)NS(=O)(=O)c1cc(C)ccc1F (stereo unspecified)	/	/	-13	/	3	6	/	11
O=C(CNc1cc([N+](=O)[O-])ccc1NCCO)Nc1cccc(S(=O)(=O)N2CCCCC2)c1	/	-10	8	/	7	-7	/	5
CC(=O)c1ccccc1Oc1cc(NN2CCCCC2)c([N+](=O)[O-])cc1[N+](=O)[O-]	i	13	8	23	0	1	21	14
O=C(CCn1c(=O)oc2ccccc21)N(Cc1ccccc1)c1ccccc1	i	-7	-14	-1	-6	0	-3	27
Cc1cc(S(=O)(=O)Nc2ccc(C(=O)NCC(c3ccco3)N(C)C)cc2)ccc1F (stereo unspecified)	i	/	-9	/	4	2	/	-2
Cc1ccc(CO/N=C/c2c(O)cc(C)oc2=O)cc1	i	-3	/	-7	-4	1	2	12
O=C(Nc1ccccn1)c1cc(-c2cccnc2)nc2ccc(Br)cc12	i	13	/	-5	-1	4	-15	10
O=C(O)c1ccc(COc2c(F)c(F)cc(F)c2F)o1	i	-7	-4	9	3	2	10	-64
O=C(CN1CCCC1)Nc1ccc(OCc2ccccc2)cc1	i	-7	/	6	5	3	1	11
O=C(O)c1ccccc1C(=O)Nc1ccc(Oc2cccc(C(F)(F)F)c2)nc1	i	-14	-7	?	3	1	?	2
OC(CNC1Cc2ccccc2C1)COc1ccc(F)cc1 (stereo unspecified)	i	14	-15	4	0	-6	-1	-8
COc1ccc(Cc2nc3ccc(C(=O)NCc4ncc(C)[nH]4)cc3o2)cc1OC	i	4	-10	-11	3	3	-4	-9
NC1=NC(c2ccccc2)=NC1(NC(=O)c1ccccc1)C(Cl)Cl (stereo unspecified)	i	-6	1	2	-3	-3	6	23
CS(=O)(=O)N(CC(=O)Nc1ccc2c(c1)OCO2)c1ccccc1	i	8	1	-6	-4	-4	2	-7
CCCc1cc(=O)oc2c(C)c(OCC(=O)NCCN3CCOCC3)ccc12	i	-10	-19	-14	-1	4	-2	4
CSc1ccc(CCNC(=O)CCc2nnc3ccc(NCCCN4CCCC4=O)nn23)cc1	i	4	-12	8	1	3	-4	3
O=C(COC(=O)c1cc(Cl)nc(Cl)c1)NCCc1ccc(F)cc1	/	-8	15	/	-3	1	/	/
COCCCNC(=O)N1c2ccccc2Sc2ccccc21	i	8	-17	7	-2	-2	4	5
COc1ccc(C2(c3ccc(OC)cc3)NC(=O)N(CC(=O)Nc3ccccc3C(F)(F)F)C2=O)cc1	i	-11	-16	2	2	3	-4	-247
C=CCN1C(=O)/C(=C2/Sc3ccc(OC)cc3N2C)SC1=Nc1ccccc1	i	-5	/	-7	-4	0	-4	7
O=C(O)c1ccccc1C(=O)NC1Cc2ccccc2C1	i	-5	/	-3	4	5	-12	6
O=C(c1ccc(NC2=NC3CS(=O)(=O)CC3S2)cc1)N1CCN(Cc2ccccc2)CC1 (stereo unspecified)	i	2	-6	-2	9	0	0	3
O=[N+]([O-])c1ccc2c(c1)nc1n2CCN(CC2CCCO2)C1 (stereo unspecified)	i	/	-12	-9	-2	0	2	-8

The results go on.
SMILES	Rce1 inhib	CSC inhib	UUG fidelity	PABP FP inh	MT1-MMP act inh	MT1-MMP act inh RFP	eIF4H FP inh	HIV Env fusion	others
COc1ccc(C(=O)Nc2ccc(CN3CCCCC3)cc2)cc1	i	/	-11	-5	2	1	-2	-8
N#CCCN(C(=O)COC(=O)CCc1ccccc1)c1ccccc1	i	/	-5	2	-2	1	4	-1
Cc1ccc(O)c(-c2cc(C(F)(F)F)[nH]n2)c1	i	12	0	7	18	6	-5	-6
O=C(C=Cc1ccco1)c1ccco1	/	/	-6	/	-8	8	/	-34
Cc1ccc(SCc2cc(=O)n3ccsc3n2)c(C)c1	i	/	/	2	/	/	8	/
CO/N=C(\C)C(Cc1ccc(Cl)nc1)Cc1ccc(Cl)nc1	i	-2	-15	4	4	-2	-2	18
Cc1ccc(S(=O)(=O)CCC(=O)OCC(=O)NCc2ccc(Cl)cc2)cc1	i	-6	/	7	1	3	7	-5
Cc1c(C(=O)Nc2c(F)cccc2F)sc2ncnc(N3CCN(c4ccccc4)CC3)c12	i	8	/	7	-4	-8	3	6
COc1ccc(/C=C/C(=O)OCC(=O)NC2CCCCCC2)cc1OC	/	-7	-6	/	1	5	/	-16
CN1CCC(OC(=O)c2ccc(Cl)cc2Cl)CC1	i	53	0	8	0	3	-13	0
Nc1cc(N2CCCC2)c(Cl)cc1[N+](=O)[O-]	i	-6	/	-7	9	1	-7	18
CCOc1cc2[nH]c(=O)n(CCCCCC(=O)NC3CCCC3)c(=O)c2cc1OCC	i	-20	-10	4	0	4	-8	8
CC(C)NCC(O)COc1ccc(CCOCC2CC2)cc1 (stereo unspecified)	i	-4	-3	-8&-3	3	5	1&9	-4
CCC(NC(=O)c1[nH]c(C)c(C(C)=O)c1C)c1ccc(Br)cc1 (stereo unspecified)	i	-1	9	13	-6	-6	-6	-4
O=C(c1cnc(Cl)c(Cl)c1)N1CCN(S(=O)(=O)c2cccs2)CC1	/	/	-12	/	-2	4	/	5
O=C(NC1CCCCC1)c1[nH]c(C(F)(F)F)nc1-c1ccccc1	/	/	3	/	1	2	/	-9
CCOc1ccc(Br)cc1S(=O)(=O)NC1CC(C)(C)NC(C)(C)C1	i	/	-22	1	2	2	57	-16	eIF4H FP inh retest=-7;PABP FP inh retest=15
CCC(=O)OCCNc1cc(Sc2nc3ccccc3[nH]2)c2nonc2c1[N+](=O)[O-]	/	27	/	3	3	-2	11	-73
N/C(COc1cc(Cl)cc(Cl)c1)=N\O	i	-9	/	1	0	0	-13	1

Molecules shown so far that contain a COOH group (5):
SMILES	Rce1 inhib	CSC inhib	UUG fidelity	PABP FP inh	MT1-MMP act inh	MT1-MMP act inh RFP	eIF4H FP inh	HIV Env fusion	others
CCn1cc(C(=O)O)c(=O)c2cc(F)c(N/N=C/c3ccccc3)cc21	i	2	-10	-1	-6	-5	15	/
COc1cccc2cc(C(=O)NCc3ccco3)c(=Nc3ccc(C(=O)O)cc3)oc12	i	12	-40	3	4	4	-15	/
O=C(O)c1ccc(COc2c(F)c(F)cc(F)c2F)o1	i	-7	-4	9	3	2	10	-64
O=C(O)c1ccccc1C(=O)Nc1ccc(Oc2cccc(C(F)(F)F)c2)nc1	i	-14	-7	?	3	1	?	2
O=C(O)c1ccccc1C(=O)NC1Cc2ccccc2C1	i	-5	/	-3	4	5	-12	6
